# Assay outcomes (PubChem)
# Cruzain inh noDet: inhibitors of Trypanosoma cruzi cruzain without detergent | P25779 | purified cruzain, Z-FR-AMC fluorescence, no detergent | Potency, µM, for the others: max response, negative = inhibition, actives largely listed as inhibitors | hit rate 2.3% among 200,000 | AID 1476; active = well fitted curve in the direction sought with a large enough effect; inconclusive = small, poorly fitted or top-dose-only effect, or another doubt; inactive = no such curve, though single readings can be large; an effect the other way counts as inactive or inconclusive;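 note: plate controls were enzyme without inhibitor for no effect and buffer without enzyme for full effect; nearly all actives have a fitted effect of over 40% in size; top concentration of the series not given in the record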
# Target sequence (P25779 123-467 limits assumed): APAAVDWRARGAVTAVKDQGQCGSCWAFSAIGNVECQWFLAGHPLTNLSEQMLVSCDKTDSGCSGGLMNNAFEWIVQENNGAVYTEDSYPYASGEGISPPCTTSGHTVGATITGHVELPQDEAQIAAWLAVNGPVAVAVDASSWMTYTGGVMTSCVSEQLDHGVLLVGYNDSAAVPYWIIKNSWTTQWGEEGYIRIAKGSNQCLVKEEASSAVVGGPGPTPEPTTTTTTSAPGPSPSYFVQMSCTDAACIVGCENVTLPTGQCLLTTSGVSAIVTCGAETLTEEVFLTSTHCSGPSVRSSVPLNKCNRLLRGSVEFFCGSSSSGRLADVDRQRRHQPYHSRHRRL
#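 Purified cruzain at 1.5 nM, pre-incubated 15 min with compound at room temperature in 100 mM sodium acetate pH 5.5, 5 mM DTT, 0.00005% Triton X-100. Reaction started with 2 uM Z-FR-AMC; AMC fluorescence increase over 60 s gives rate.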
# Lassa entry inh: Lassa virus entry inhibition. hit rate 1.2% among 300,000. Lassa virus pseudotype entry inhibition, cell reporter; control for the full effect not named in the record. Potency, µM (highest dose often 37.9 µM), without a hit: top-dose activity change, negative = inhibition, most hits filed as inhibitors; active means well fitted inhibition curve with a large enough effect; inconclusive means small, poorly fitted or top-dose-only effect, or effect the other way; inactive means flat fitted curve, though single readings scatter; tested in HEK293 cells; note: % is set by controls: 0 for no effect and ±100 for the full control effect; nearly all actives have a fitted effect of over 50% in size; luciferase read-out
# 2A StopGo: lowers the luciferase signal of an FMDV 2A StopGo reporter. human cells with a luciferase reporter of 2A StopGo recoding; control for the full effect not named in the record. hit rate 1.2% among 410,000. Potency, µM (doses to about 57.9 µM), inactives show at the top dose signal change, negative = less light; active = well fitted falling curve with a large enough effect; inconclusive = small, poorly fitted or top-dose-only effect; inactive = no such curve, though single readings can be large or run the other way; tested in HEK293T cells; note: % is set by controls: 0 for no effect and ±100 for the full control effect; nearly all actives have a fitted effect of over 45% in size; luciferase light after 4 h
# SARS PLpro yeast: blocks SARS-CoV papain-like protease in a yeast assay; S. cerevisiae expressing SARS-CoV PLpro, growth rescue; control for the full effect not named in the record; Potency, µM (highest dose often 32.9 µM), inactives show top-dose activity, positive = growth rescue; hit rate 0.19% among 330,000; AID 485353; note: 0% is about no effect; nearly all actives have a fitted effect of over 55% in size; growth read by luminescence after 48 h
# NS1 function inh: blocks influenza NS1 protein function. hit rate 0.4% among 270,000. S. cerevisiae slowed by influenza A NS1, growth recovery by OD600. Potency, µM (top dose mostly 46.1 µM), for the others: top-dose activity, positive = more growth; note: actives are rising curves; nearly all actives have a fitted effect of over 50% in size
#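 A cell-based growth assay was used: compounds that relieve NS1-induced slow growth of budding yeast raise OD600. Assay medium was yeast nitrogen base with ammonium sulphate and -URA supplement, pH 6.0, with 2% galactose.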
# Marburg entry inh: blocks Marburg virus binding to or entry into cells | AID 540276 | hit rate 1.8% among 300,000 | Potency, µM (titrated, usually from 37.8 µM), for inactives: at the highest dose activity change, negative = inhibition, actives largely listed as inhibitors | Marburg virus pseudotyped entry inhibition, cell reporter; control for the full effect not named in the record; about a third of the inactives were read at about 46 µM; active = well fitted inhibition curve with a large enough effect; inconclusive = small, poorly fitted or top-dose-only effect, or effect the other way; inactive = flat fitted curve, though single readings scatter; tested in HEK293 cells; about a fifth of its hits are not listed in these tables; note: % is set by controls: 0 for no effect and ±100 for the full control effect; luciferase read-out
# RE007 growth inh: less growth of the S. pombe RE007 Vpr strain. S. pombe RE007 Vpr strain, BacTiter-Glo ATP luminescence, 24 h; control for the full effect not named in the record. Potency, µM (top dose mostly 92.2 µM), for the others: at the top dose activity change, negative = less growth. hit rate 0.21% among 360,000. AID 651644; active = well fitted falling curve with a large enough effect; inconclusive = small, poorly fitted or top-dose-only effect; inactive = no such curve, though single readings can be large or run the other way;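 note: % is set by controls: 0 for no effect and ±100 for the full control effect; nearly all actives have a fitted effect of over 50% in size; the assay follows cell death caused by Vpr and the record does not say whether a fall means rescue or toxicity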
#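 Fission yeast RE007 carrying one integrated HIV-1 vpr copy, seeded at OD 0.01 in PMG+AL medium with 23 nL pinned compound. Grown 24 h at 30 degrees; viability read by BacTiter-Glo luminescence after 5 min.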
# Cruzain Triton: cruzain (T. cruzi) inhibition with detergent; hit rate 0.43% among 200,000; Potency, µM, inactives show max response, negative = inhibition, most hits filed as inhibitors; purified cruzain, Z-FR-AMC fluorescence, 0.01% Triton; P25779; AID 1478; active = well fitted curve in the direction sought with a large enough effect; inconclusive = small, poorly fitted or top-dose-only effect, or another doubt; inactive = no such curve, though single readings can be large; an effect the other way counts as inactive or inconclusive;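 note: plate controls were neutral wells for no effect and buffer without enzyme for full effect; nearly all actives have a fitted effect of over 40% in size; top concentration of the series not given in the record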
#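 Compounds were screened in titration against cruzain (1.5 nM) with 0.01% Triton X-100 to counter colloidal aggregation. Activity was the AMC fluorescence increase over 60 s after adding 2 uM Z-FR-AMC at pH 5.5.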
# Starred values were filed as active, the others as inactive; ? = inconclusive; . = no result given; & = joins results of further samples; [ ] = another dose, or the depositor's remark. Unless noted, calls come from the whole dose curve; as a rule, active means well fitted rising curve with a large enough effect; inconclusive means small, poorly fitted or top-dose-only effect; inactive means no such curve, though single readings can be large or run the other way. Potency is the fitted concentration of half-maximal effect.
SMILES,Cruzain inh noDet,Lassa entry inh,2A StopGo,SARS PLpro yeast,NS1 function inh,Marburg entry inh,RE007 growth inh,Cruzain Triton
O=C1c2nc3cc(-c4ccco4)[nH]n3c(=O)c2CN1Cc1ccccc1,.,27%,-3%,3%,15%,1%,-5%,.
Nc1c2c3c(sc2nc(=O)n1N)CCCC3,.,?,7%,0%,7%,13%,-18%,.
COC(=O)c1cc(C(C)=O)c(C)[nH]c1=O,.,0%[46.1 µM],2%,0%,-1%,18%[46.1 µM],-2%,.
O=C(NN=C(Cc1ccccc1)Cc1ccccc1)c1ccncc1,.,.,-9%,0%,-2%,.,8%,.
CC(C)(C)SCCNC(=O)CN(c1ccc(F)cc1)S(=O)(=O)c1ccccc1,.,-6%[46.1 µM],-13%,-1%,3%,?,6%,.
CCN(CC)c1ccc(N2C(=O)C3CCCCC3C2=O)cc1[N+](=O)[O-] (stereo not given),-6%,14%,-27%,-21%,-15%,-14%,41%,-3.4%
CCOc1ccc(NC(=O)C(=O)c2cc(C)n(-c3cc(C)cc(C)c3)c2C)cc1,5%,13%[46.1 µM],-26%,.,.,-15%[46.1 µM],.,-6.2%
CC(=O)Nc1ccc(NCc2cccs2)cc1,.,8%[46.1 µM],17%,5%,4%,19%[46.1 µM],7%,.
COc1ccccc1N1CCN(C2CCCN(C(=O)c3csc(C)n3)C2)CC1 (stereo not given),.,13%,-20%,0%,11%,3%,-22%,.
Cc1ccc(C)c(S(=O)(=O)Nc2ccc(C(=O)N3CCCCC3)cc2)c1,.,0%,76%[activator],-3%,-1%,-18%,8%,.
O=C(Cc1ccc(NC(=O)N2CCSc3ncccc32)cc1)NCCc1ccccc1,-13%,24%[46.1 µM],-14%,.,.,.,.,-16%
Cc1cc(C)nc(NC(=O)Nc2ccccc2C(F)(F)F)n1,23%,-6%,12%,-9%,-111%,?,-12%,-1.7%
CC1CCC(NC(=O)c2cccc(S(=O)(=O)N3CCN(c4ccccc4)CC3)c2)CC1 (stereo not given),.,-15%,-1%,-2%,.,1%[46.1 µM],-4%,.
O=C(NCCCn1ccnc1)c1ccncc1,1%,11%,40%[activator],0%,-13%,15%,18%,1.6%
CCc1nnc(NS(=O)(=O)c2ccc(NC(=O)c3cc(Cl)ccc3[N+](=O)[O-])cc2)s1,.,.,5%,5%,11µM*,.,1%,.
O=C(NC(=S)Nc1ccccc1N1CCCCC1)c1ccc(-c2cccc([N+](=O)[O-])c2)o1,5µM*,-22%,-11%,4%,5%,3%,15%,2.3%
CC(=O)Nc1ccc(S(=O)(=O)c2c(N)n(CCN3CCOCC3)c3nc4ccccc4nc23)cc1,1%,?,-19%,2%,-32%,14%&14%[46.1 µM],10%,-10%
O=C(CSCC(=O)NC1CC1)Nc1ccc2ccccc2c1,2%,-4%,7%,-4%,-13%,13%,0%,-2.7%
COc1ccc(CCc2nnc(CCC(=O)NCc3cc(C(C)C)no3)o2)cc1,.,2%[46.1 µM],27%,0%,-5%,12%[46.1 µM],-9%,.
CCOC(=O)CC1C(=O)NCCN1S(=O)(=O)c1cccc(C(F)(F)F)c1 (stereo not given),.,7%,-25%,-4%,8%,1%,-5%,.
CCOC(=O)c1cc2sccc2n1CC(=O)OC(C)C,10%,1%,-22%,4%,-14%,?,-2%,-5.1%
COc1ccc(OC)c(Nc2nnc(C)c(=O)[nH]2)c1,.,11%[46.1 µM],-18%,0%,.,1%[46.1 µM],5%,.
CC(C)(C)NC(=O)C(OC(=O)c1cccs1)c1ccc(C#N)cc1 (stereo not given),.,?,9%,0%,2%,1%[46.1 µM],10%,.
CCOc1ccc(NC(=O)N2CCN(Cc3ccc4c(c3)OCO4)CC2)cc1,.,-8%,-18%,-1%,8%,0%,-13%,.
COc1ccc(C2c3[nH]c4ccccc4c3C[C@H]3C(=O)N(c4ccccc4C(=O)NCCN4CCOCC4)C(=O)N23)cc1 (stereo not given in full),.,.,1%,3%,-6%,.,-9%,.
CCOC(=O)c1cnn(-c2nc(SC)nc3sc4c(c23)CCC4)c1N,7.9µM*,16%,-1%,6%,11%,2%,1%,0.8%
CC(=O)c1ccccc1NC(=O)COC(=O)c1ccc2c(c1)nc(C)n2-c1ccccc1,?,-8%,.,-2%,7%,7%,.,-3.7%
Cn1ncc2c(Nc3ccccc3Br)ncnc21,-5%,13%,-9%,?,-1%,-11%,-15%,3.0%
CCOC(=O)C1CCN(C(=O)Cn2c(=O)c3cccn3c3cccnc32)CC1,.,.,-13%,3%,?,.,2%,.
CC1CCN(S(=O)(=O)c2ccc(N3CCCCS3(=O)=O)cc2)CC1,0%,-5%[46.1 µM],-20%,.,.,.,.,0.9%
Cc1noc(C)c1CS(=O)(=O)Cc1ccc(Cl)cc1,.,14%[46.1 µM],-15%,-1%,.,18%[46.1 µM],9%,.
O=C1C=CCC(/C=C/c2ccccc2)O1 (stereo not given),-2%,?,?,-41%,-14%,8.2µM*,?,0.2%
CN(c1ncc(C(F)(F)F)cc1Cl)n1cc(C(=O)O)c2ccccc2c1=O,-11%,1%,-13%,-7%,5%,-6%,5%,1.6%
CCOC(=O)c1c(-c2cccs2)csc1N,.,-3%,?,-4%,-4%,0%[46.1 µM],-3%,.
CCOC(=O)C1CCN(C(=O)COC(=O)CNC(=O)c2ccc(C(C)(C)C)cc2)CC1,.,-11%,10%,12%,.,3%,4%,.
CN(C)S(=O)(=O)N1CCN(CC(=O)Nc2cc(Cl)ccc2Cl)CC1,10%,14%,-12%,-5%,-17%,-21%,8%,-1.8%
N#Cc1c(Oc2ccc3ccccc3c2)sc(C(=O)c2ccccc2)c1N,25µM*,?,?,0%,9%,8%,-8%,4.1%
CC(Nc1cccc2ccccc12)C(=O)N/N=C/c1ccccn1 (stereo not given),-5%,-16%,.,1%,-5%,-25%,-8%,-6.7%
CC(=O)OC(C)(C)/C=C/C(=O)C(C)(O)C1[C@H](O)C[C@@]2(C)C3CC=C4C(CC[C@@H](O)C4(C)C)[C@]3(CO)C(=O)C[C@]12C (stereo not given in full),.,?,18µM*,3%,3%,0.25µM*,1%,.
CNC(=S)N(Cc1ccco1)Cc1cc2cc(OC)c(OC)cc2[nH]c1=O,.,-18%,-4%,0%,0%,11%[46.1 µM],-12%,.
O=C(O)c1[nH]nc2c1COc1ccccc1-2,-2%,12%,-21%,4%,1%,12%,5%,-3.6%
CN1CCN(c2nc3c(c(=O)[nH]2)CCC3)CC1,.,.,-3%,2%,-5%,.,-3%,.
Cc1ccc(S(=O)(=O)N(C)C)cc1NC(=S)N(C)C1CCN(C)CC1,.,.,-19%,0%,-2%,.,6%,.
CC(=O)C1=C(O)C(=O)N(CO)C1c1ccccc1F (stereo not given),0%,1%,.,-3%,7%,-1%,3%,-3.6%
Cc1c(NC(=O)Nc2ccc(F)cc2F)c(=O)n(-c2ccccc2)n1C,.,0%[46.1 µM],-5%,1%,?,0%[46.1 µM],15%,.
COc1cc(S(=O)(=O)N2CCN(C(=O)c3ccco3)CC2)ccc1Cl,.,.,-12%,2%,9%,.,4%,.
CC(=C1C(=O)c2ccccc2C1=O)N1CCN(C/C=C/c2ccccc2)CC1,-22%,-4%,19%,-1%,-38%,8%,-19%,-1.8%
Cc1ccc(/C=N/Nc2nnc(Cc3ccccc3)c(=O)[nH]2)o1,.,?,-3%,0%,.,?,-27%,.
O=S(=O)(NC1CCCCCC1)c1ccc(Br)s1,-7%,7%,35%[activator],-93%,-34%,2%,-13%,-7.6%
COc1ccc(CNC(=O)C(c2ccco2)N(C(=O)c2ccccn2)c2ccccc2)cc1 (stereo not given),.,.,-11%,0%,2%,.,-4%,.

# Following part
SMILES,Cruzain inh noDet,Lassa entry inh,2A StopGo,SARS PLpro yeast,NS1 function inh,Marburg entry inh,RE007 growth inh,Cruzain Triton
Cn1c(N)c(C(=O)COC(=O)Cc2ccc(Br)cc2)c(=O)n(C)c1=O,.,23%,6%,-29%,.,10%,2%,.
COc1ccc(NC(=O)N(CCCN(C)C)Cc2cc3cc(OC)ccc3[nH]c2=O)cc1,-2%,-27%&1%,-18%,17%,5%,?,2%,-4.1%
COc1ccc(CCNC(=O)Cn2c(=O)n(Cc3ccco3)c(=O)c3ccc(Cl)cc32)cc1OC,?,-6%,0%,3%,-1%,?,-5%,-3.0%
O=C(NCCc1ccccc1)C1CCN(S(=O)(=O)c2cccs2)CC1,20%,20%,.,15%,-11%,?,30%,2.4%
Cc1ccccc1NC(=O)c1ccc(N(Cc2ccccc2)S(C)(=O)=O)cc1,13%,-21%[46.1 µM],-2%,.,.,.,.,-4.8%
O=C(Nc1nc(-c2cccc3ccccc23)cs1)c1ccc2c(c1)S(=O)(=O)c1ccccc1C2=O,.,7%,31%[activator],-1%,1%,12%[46.1 µM],-17%,.
CCOc1ccc(NC(=O)CCN2CCN(S(=O)(=O)c3ccc(OC)cc3)CC2)cc1,4%,-17%,-23%,5%,1%,-2%,-15%,3.1%
O=C1CN=C(Nc2ccccc2Cl)N1c1ccccc1,-7%,-2%,-26%,11%,15%,2%,3%,4.8%
COCC(=O)Nc1cc(C)cn(Cc2ccccc2Cl)c1=O,.,8%,5%,2%,-15%,-20%,9%,.
CCOc1ccc(NC(=O)CSc2ccc(-c3ccco3)nn2)cc1,.,-7%,-8%,-1%,-11%,2%,40%,.
Fc1ccc(N2N=C(c3cccs3)CC2c2ccco2)c(F)c1 (stereo not given),-3%,-11%,-18%,-33%,-18%,-4%,-17%,?
Cc1ccc(C(=O)N2CCN(c3cnn(C)c(=O)c3Cl)CC2)cc1,.,-17%[46.1 µM],-12%,1%,.,20%[46.1 µM],16%,.
CCC1S/C(=C(\C#N)C(N)=O)N(c2ccc(F)cc2)C1=O (stereo not given),-6%,10%,5%,1%,13%,5%,-11%,-1.4%
CCOC(=O)c1ccc(N2CCN(c3cccc(Cl)c3)CC2)c(NC(=O)Nc2ccc(Cl)cc2)c1,4µM*,-1%[46.1 µM],-17%,.,.,.,.,0.6%
